PK Bst = alters activity of Bacillus stearothermophilus pyruvate kinase | partly purified Bacillus stearothermophilus pyruvate kinase, luminescence ATP production; ribose 5-phosphate activator present at AC10 | Potency, µM | 1.2% of 51,000 active | AID 361; in the data active means potency below about 11 µM; inconclusive means mostly about 12 µM to 25 µM; inactive means weaker than that;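 the screen sought inhibitors and activators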;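 also: potency is read from the fitted curve at half-maximal effect; scaled between full activation by ribose 5 phosphate and full inhibition by luteolin; about four in five hits inhibit and the cells do not say which; series up to 57 µM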
YjeE inh = inhibitors of E. coli YjeE (TsaE) | P0AF67 | purified YjeE, fluorescence polarisation of a bound ADP probe | Potency, µM | 0.05% of 71,000 active | AID 605; active = well fitted falling curve; inconclusive = weaker or top-dose-only fall, or a rising curve; inactive = flat or poorly fitted curve;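 also: top concentration of the series not given in the record; excess ADP was the control for the full effect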
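Purified YjeE (10 uM) with BODIPY Texas Red-labeled ADP probe (2 uM); compounds pin-transferred, 15 min at room temperature. Binding inhibition read as decreased fluorescence polarization; ADP titration as control.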
Starred values were filed as active, the others as inactive; i = inactive; ? = inconclusive; . = not tested or not shown.

SMILES	PK Bst	YjeE inh
Cc1cc(NC(=O)c2cc(C(C)C)on2)no1	>57	i
COc1c(C)cc(Br)cc1C(=O)Nc1cccc(-c2nc3ncccc3o2)c1	.	i
Cc1cc(C)nc(N2CCC(C(=O)NCc3ccco3)CC2)n1	>57	i
O=C(Cc1ccc2c(c1)OCCO2)c1c(O)cc(O)cc1O	.	i
CC1CCCCN1C(=O)Cn1c(=O)n(C2CCCCC2)c(=O)c2ccccc21 (centres undefined)	>57	i
CC1(C)CC(=O)C(C=NCCN2CCN(CCCCS(=O)(=O)O)CC2)=C(O)C1	>57	i
CC(CC(C)C(=O)N1CCOCCN(C(=O)C(C)CC(C)C(=O)O)CCOCC1)C(=O)O (centres undefined)	>57	i
C=CCn1c(-c2cc(OC)cc(OC)c2)n[nH]c1=S	>57	i
Cc1cc(C(F)(F)F)c2c(C)nn(CCc3nn[nH]n3)c2n1	>57	i
CC(C)(C)c1cc(C(=O)NCc2ccco2)ccn1	>57	i
CS(=O)(=O)N(CCC(=O)O)Cc1ccccc1	>57	i
O=C(CCn1nnc2ccccc21)Nc1nnc(-c2ccccc2F)s1	>57	i
Cc1sc(-n2cccc2)c(C(=O)O)c1C	>57	i
O=C1CC(N2CCC(O)(c3ccc(Cl)cc3)CC2)C(=O)N1Cc1ccc(N2CCCC2=O)cc1 (centres undefined)	>57	i
CC(NC(=O)c1cccnc1)c1ccc2c(c1)OCO2 (centres undefined)	>57	i
CCOC(=O)N1CCC(NC(=O)CN2C(=O)CSc3ncccc32)CC1	.	i
CCCc1cc(C(N)=O)c(NC(=O)c2ccco2)s1	>57	i
COc1ccc(NC(=O)Nc2cc(C)ccn2)cc1	.	i
O=C(COc1ccccc1)NCc1ccc2c(c1)OCO2	>57	i
COc1ccc(S(=O)(=O)Cc2ccc(C(=O)NC3CC3)o2)cc1	.	i
Cc1ccc2c(c1)C1CN(C)CCC1N2C(=O)Nc1ccc(Cl)cc1 (centres undefined)	i	i
Cc1oc2nc(SCC(=O)N3CCCCC3)nc(N)c2c1C	>57	i
COc1ccc(CCCC(=O)O)c(C)c1	>57	i
CC(=O)Cc1nsc(NC(=O)c2ccc(-c3cccc(C(F)(F)F)c3)o2)n1	>57	i
Cc1cc(C)c2c(-n3cccc3)c(C(=O)O)sc2n1	>57	i

Overlap with the part before: five compounds, then new ones.
SMILES	PK Bst	YjeE inh
Cc1ccc2c(c1)C1CN(C)CCC1N2C(=O)Nc1ccc(Cl)cc1 (centres undefined)	i	i
Cc1oc2nc(SCC(=O)N3CCCCC3)nc(N)c2c1C	>57	i
COc1ccc(CCCC(=O)O)c(C)c1	>57	i
CC(=O)Cc1nsc(NC(=O)c2ccc(-c3cccc(C(F)(F)F)c3)o2)n1	>57	i
Cc1cc(C)c2c(-n3cccc3)c(C(=O)O)sc2n1	>57	i
CCOc1ccc(S(=O)(=O)n2cnc3cc(C)c(C)cc32)cc1	>57	i
COCCCn1c2nc3ccccc3nc2c2c(=O)n(CC3CCCO3)cnc21 (centres undefined)	>26	.
Cc1ccc2c(c1)NC(=O)C(CC(=O)NCCCN1CCCC1)O2 (centres undefined)	.	i
CC1(C)S[C@@H]2[C@H](NC(=O)[C@@H](N)c3ccc(O)cc3)C(=O)N2[C@H]1C(=O)O	.	i
CCCCN(CC)CCNC(=O)Cn1cnc2sc(C)c(S(=O)(=O)N3CCOCC3)c2c1=O	>57	i
COc1ccc(C(=O)N(Cc2nc(-c3ccc(C)cc3)no2)C(C)C)cc1OC	.	i
Nc1nnc(SCC(=O)NC2CCCCC2)n1-c1ccccc1	>57	i
Cc1ccc(-c2nc(COC(=O)c3c(C)noc3C)cs2)cc1	>57	i
COCC(=O)N1CCC2(CCCN(c3ccccc3)C2)CC1	.	i
CCN(CCNC(=O)C1CCCN(S(=O)(=O)c2cnc[nH]2)C1)c1ccccc1 (centres undefined)	.	i
O=C(O)c1c2c(nc3ccc(S(=O)(=O)N4CCC(C(=O)NC5CCCC5)CC4)cc13)CCCCC2	.	i
CCOC(=O)C1CCN(Cc2ccc(N(C)C)cc2)CC1	.	i
Cc1ccc(OC(=O)c2ccc(C)c(C)c2)cn1	>11	i
O=C(O)CCCCCNc1nc2ncn(Cc3ccccc3)c2c(=O)[nH]1	>57	i
COc1ccc(CCN2CC3=C(C2=O)C(c2ccccc2)NC(=O)N3C)cc1OC (centres undefined)	>57	i
CCOC(=O)Oc1ccc2oc(=O)cc(C)c2c1	.	i
CC1CCCN(C(=O)c2cc(F)c(F)cc2Cl)C1 (centres undefined)	.	i
C(/CCc1ccccc1)=N\n1cnnc1	>57	i
Oc1ccccc1-c1nc(NCCN2CCOCC2)c2ccccc2n1	i	.
Cc1ccc2nc(-c3ccc(N)cc3)sc2c1S(=O)(=O)O	.	i
Cn1c(SCCS(=O)(=O)c2ccc(Cl)cc2)nnc1-c1ccccc1	>57	i
CCCCOc1ccc(-c2nnn(CC(=O)Nc3ncc(CC(=O)OCC)s3)n2)cc1	>57	i
O=C(NC12CCC(O)C(SC1)/C2=N/O)c1ccccc1 (centres undefined)	>57	i
Cc1cc(N2CCN(c3nc4ccccc4s3)CC2)n2ncnc2n1	.	i
COc1ccc(NC(=O)C2CC(c3ccc(OC)c(OC)c3)=NO2)cc1OC (centres undefined)	>57	i

Continuation:
SMILES	PK Bst	YjeE inh
COc1ccc(S(=O)(=O)N2CCN(S(=O)(=O)c3ccc4c(c3)OCCO4)CC2)cc1C	>57	i
COc1cc(C(=O)Nc2nccs2)c(Br)c(OC)c1OC	>57	i
COc1cc(OC)c(C2C(C#N)=C(N)OC3=C2C(=O)CC(C)C3)cc1OC (centres undefined)	.	i
Cc1cc2cc(CCNC(=O)CC(C)(C)C)c(=O)[nH]c2cc1C	.	i
CC1CCN(CCc2nc3cc(NC(=O)Nc4ccccc4)ccc3n2C)CC1	>57	i
Cc1cccc2cc(CN(Cc3cccnc3)C(=O)c3ccncc3)c(=O)[nH]c12	>57	i
CC1(C)Cc2cccc(OCC(=O)N3CCN(S(=O)(=O)c4ccccc4F)CC3)c2O1	>57	i
O=C(CN1CCN(c2nc(-c3ccc(Cl)cc3)cs2)CC1)NCc1ccco1	.	i
O=C1CCC(=O)N1c1ccc(CSc2nnnn2C2CCCCC2)cc1	.	i
COCCNC(=O)Cn1cnc2ccc(S(=O)(=O)N3CCC(C)CC3)cc2c1=O	>57	i
CCN(CC)CCCN1C(=O)C(O)=C(C(=O)c2ccco2)C1c1cc(OC)ccc1OC (centres undefined)	>57	i
CC(=O)c1c(C(C)=O)c(C)n(NC(=O)c2cccnc2)c1C	>57	i
CCOC(=O)CCN(Cc1cccs1)S(=O)(=O)c1ccc(Cl)cc1	?	i
COc1ccc2[nH]cc(C(=O)CN3CCCCC3)c2c1	>57	i
Cc1ccc2cc3cc(C(=O)N4CC(C)CC(C)C4)oc3nc2c1 (centres undefined)	.	i
CSc1nc(C)cc(Nc2ccc(O)c(CN3CCOCC3)c2)n1	.	i
O=C(NCc1ccco1)C1OCCc2ccccc21 (centres undefined)	>57	i
COc1ccc(C[C@@H]2c3cc(OC)c(OC)cc3CC[N@+]2(C)CCC(=O)OCCCCCOC(=O)CC[N@@+]2(C)CCc3cc(OC)c(OC)cc3[C@H]2Cc2ccc(OC)c(OC)c2)cc1OC	.	i
Cc1ccc(C)n1-n1c(C)nc2scc(-c3cccs3)c2c1=O	.	i
Cc1ccc(SCc2cc(=O)[nH]c(N3CCCCC3)n2)cc1	>57	i
CC(=O)c1ccc(NC(=O)Nc2ncn(Cc3cccc(C)c3)n2)cc1	>57	i
CCCn1cnc2c(c1=O)c1nc3ccccc3nc1n2CCC1=CCCCC1	>57	i
CCOc1ccc(C(C)(C)C)cc1S(=O)(=O)N1CCOCC1	>57	i
FC(F)(F)c1cc(-c2ccccc2)nc(N2CCCCC2)n1	>57	i
CCCC(=O)Nc1nn(C)c2nc3c(C)cccc3cc12	>57	i

Next part:
SMILES	PK Bst	YjeE inh
Cc1cccc(CNc2ncnc3ccc(-c4ccc5c(c4)OCO5)cc23)c1	.	i
O=S(=O)(c1ccccc1)N1CCC2(CCCN(c3ccccn3)C2)CC1	.	i
CNc1cc(-c2ccccc2C)ncn1	.	i
O=C1COc2ccc(C(=O)COC(=O)CCc3ccc(S(=O)(=O)N4CCOCC4)cc3)cc2N1	>57	i
CCOC(=O)c1cc(NC(=O)OC)c(C)nc1C	>57	i
CN1[C@@H]2CC(OC(=O)[C@@H](CO)c3ccccc3)C[C@@H]1[C@H]1O[C@H]12 (some centres undefined)	.	i
O=C(Nc1ncccn1)C1CCCN1S(=O)(=O)c1ccc(Cl)c(Cl)c1 (centres undefined)	i	i
COc1cc2sc(C)nc2c2sccc12	i	i
O=C(Nc1ccc2nc(-c3ccco3)[nH]c2c1)c1cccs1	10*	i
COc1ccc(N2C(=O)NC3CC2(C)Oc2ccc(Br)cc23)cc1OC (centres undefined)	>57	i
c1ccc(Oc2nc(NCc3ccco3)nc(NCc3ccco3)n2)cc1	>57	i
CCn1c(CNC(=O)c2ccco2)nnc1SCC(=O)Nc1cc(C(F)(F)F)ccc1Cl	>57	i
O=C(c1ccccc1)c1ccccc1	.	i
Cc1nc(NCc2ccc3c(c2)OCO3)c2nnn(Cc3ccccc3)c2n1	>57	i
CCC(OC(=O)c1ccco1)C(=O)NCc1ccco1 (centres undefined)	>57	i
Cc1cc2c(c(=O)n1Cc1ccco1)C(c1cccnc1)C(C#N)=C(N)O2 (centres undefined)	>57	i
Cn1c(SCC(=O)c2cccs2)nnc1-c1ccco1	>57	i
CSc1ccccc1NC(=O)CN(c1cccc(C)c1)S(C)(=O)=O	>57	i
NC(=O)CSc1ccc(Br)cc1	>57	i
CC(=O)N1CCN=C1SCc1ccc(Cl)cc1	.	i
CN(C)CCOCCP(=O)(c1ccccc1)c1ccccc1	.	i
O=[N+]([O-])c1cc(C(F)(F)F)ccc1Cl	.	i
Cn1c(=O)c2c(nc(NCCNC(=O)c3ccco3)n2Cc2ccccc2Cl)n(C)c1=O	>57	i
O=C(NCc1cccnc1)NC1(c2ccccc2)CC1	.	i
CC(C)(C)n1nnnc1C(c1cc2cc3c(cc2[nH]c1=O)OCCO3)N1CCSCC1 (centres undefined)	>57	i

(next part)
SMILES	PK Bst	YjeE inh
COc1ccc2c(c1)c(=O)oc1c(C)c3occ(C)c3cc12	>57	i
COC(=O)Nc1cc(C)nc2ccccc12	>57	i
Cc1cc(N(CN2CCCC2=O)C(=O)c2ccccc2)no1	>57	i
COc1ccccc1NC(=O)CCNC(=O)Cn1ccc2ccccc2c1=O	>57	i
O=c1cc(CSc2ccccn2)c2ccccc2[nH]1	>57	i
COc1ccc(CNC(=O)[C@H](C)[C@H]2C[C@]2(C)[C@H](NC(=O)OCc2ccccc2)c2ccccc2)cc1OC	.	i
CC(C)C1=C[C@@]23CC[C@@H]4[C@](C)(CCC[C@@]4(C)C(=O)O)[C@@H]2C[C@@H]1[C@@H](C(=O)O)[C@@H]3C(=O)O	.	i
COc1ccc2cc(CCNC(=O)C3CC3)c(=O)[nH]c2c1	.	i
Cn1c(SCc2cccc(C(F)(F)F)c2)nnc1-c1ccco1	>57	i
CC1CCCN(CCC(=O)c2ccc(Br)cc2)C1 (centres undefined)	>57	i
COc1ccc(NC(=O)C2CCCN(S(=O)(=O)c3cccc4cccnc34)C2)c(OC)c1 (centres undefined)	.	i
O=C(Nc1ccc(Cl)c(Cl)c1)N(Cc1cccnc1)Cc1ccco1	>57	i
COc1ccc(C(c2nnnn2Cc2ccc(F)cc2)N2CCN(c3ccc(OC)cc3)CC2)cc1 (centres undefined)	>57	i
C[N+]12CCC(CC1)[C@@H](OC(=O)C(O)(c1ccccc1)c1ccccc1)C2	.	i
CCC1CCCCN1C(=O)CSc1nnc(-c2c[nH]c3ccccc23)o1 (centres undefined)	>57	i
CCOc1cc(C)c(Cl)cc1S(=O)(=O)NCc1ccco1	i	i
CCOC(=O)C1=C(SCC(=O)Nc2ccccc2)NC(=O)C(C#N)C12CCCCC2 (centres undefined)	.	i
O=C(Nc1ccccc1N1CCCC1)c1ccc2c(c1)OCO2	>57	i
O=C(OCC(=O)N1CCN(C(=O)c2ccco2)CC1)c1ccc(S(=O)(=O)N2CCCCC2)cc1	>57	i
O=C(CSCCc1ccccn1)Nc1cccnc1	>57	i
Cc1cc(Cc2c(C)c(C)c(Cc3cc(C)cc(C(C)(C)C)c3O)c(C)c2C)c(O)c(C(C)(C)C)c1	.	i
Cn1c(=O)c(-c2cccc(F)c2)nc2cncnc21	.	i
CC1(C)Oc2ccc(C(=O)NC3CCCC3)cc2N(CC(=O)N2CCOCC2)C1=O	>57	i
CCOC(=O)Cc1csc(NC(=O)C2C3C=CC(C3)C2C(=O)O)n1 (centres undefined)	>57	i
CCOc1ccc(-c2nc(CSCC(=O)NCc3ccco3)c(C)o2)cc1	.	i
CCOCCCNC(=O)CCCOc1ccccc1	>57	i

Molecules listed so far with two or more sulfur atoms, in the order listed:
SMILES	PK Bst	YjeE inh
CCCCN(CC)CCNC(=O)Cn1cnc2sc(C)c(S(=O)(=O)N3CCOCC3)c2c1=O	>57	i
Cc1ccc2nc(-c3ccc(N)cc3)sc2c1S(=O)(=O)O	.	i
Cn1c(SCCS(=O)(=O)c2ccc(Cl)cc2)nnc1-c1ccccc1	>57	i
COc1ccc(S(=O)(=O)N2CCN(S(=O)(=O)c3ccc4c(c3)OCCO4)CC2)cc1C	>57	i
CCOC(=O)CCN(Cc1cccs1)S(=O)(=O)c1ccc(Cl)cc1	?	i
Cc1ccc(C)n1-n1c(C)nc2scc(-c3cccs3)c2c1=O	.	i
COc1cc2sc(C)nc2c2sccc12	i	i
Cn1c(SCC(=O)c2cccs2)nnc1-c1ccco1	>57	i
CSc1ccccc1NC(=O)CN(c1cccc(C)c1)S(C)(=O)=O	>57	i

This is a subset (hit frequency here may not be typical).
